Source: PubChem (Johns Hopkins Ion Channel Center)
KCNQ2 enhance = potentiators of rat KCNQ2 potassium channel; O88943; CHO-K1 KCNQ2, FluxOR thallium flux fluorescence; stronger effect = higher value; B-score at 10 µM; 0.54% of 310,000 active;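 active = fluorescence ratio B-score at least 3 SD of library B-scores, with initial fluorescence B-score within 3 SD, cut at about 5.3 in these data; same plate scores as AID 2156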;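 note: B-score of peak minus minimum over baseline fluorescence ratio after K+ and Tl+ stimulus; positive B-score means potentiation of KCNQ2 with more thallium influx and brighter signal; only the inactives scoring about 0 or higher are listed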
Target sequence (O88943 whole entry, looked up): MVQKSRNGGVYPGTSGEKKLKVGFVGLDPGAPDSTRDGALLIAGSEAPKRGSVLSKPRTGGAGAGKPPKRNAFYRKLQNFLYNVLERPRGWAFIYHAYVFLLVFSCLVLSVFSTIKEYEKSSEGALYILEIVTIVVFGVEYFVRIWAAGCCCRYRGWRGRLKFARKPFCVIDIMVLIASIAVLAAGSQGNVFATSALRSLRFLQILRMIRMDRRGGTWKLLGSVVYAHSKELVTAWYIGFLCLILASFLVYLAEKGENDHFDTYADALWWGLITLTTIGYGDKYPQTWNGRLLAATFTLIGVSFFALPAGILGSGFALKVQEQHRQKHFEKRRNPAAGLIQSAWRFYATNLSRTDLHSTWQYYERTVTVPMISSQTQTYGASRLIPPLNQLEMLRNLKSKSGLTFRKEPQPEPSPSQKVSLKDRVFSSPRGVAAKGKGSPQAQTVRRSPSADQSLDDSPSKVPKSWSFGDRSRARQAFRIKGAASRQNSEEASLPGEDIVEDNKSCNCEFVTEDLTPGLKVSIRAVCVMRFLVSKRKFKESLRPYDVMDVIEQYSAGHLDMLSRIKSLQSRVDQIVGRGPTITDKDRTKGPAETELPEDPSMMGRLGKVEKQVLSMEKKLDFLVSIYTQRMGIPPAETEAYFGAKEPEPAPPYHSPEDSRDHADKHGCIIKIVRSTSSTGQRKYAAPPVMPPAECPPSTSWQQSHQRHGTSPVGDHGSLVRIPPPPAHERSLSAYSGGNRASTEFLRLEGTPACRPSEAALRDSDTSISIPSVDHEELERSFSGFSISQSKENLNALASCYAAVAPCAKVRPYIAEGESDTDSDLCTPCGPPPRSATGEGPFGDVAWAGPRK
KCNQ2 enhance baseline = recorded beside KCNQ2 enhance, whose call it bears; B-score; compound at 10 µM; measured here: initial fluorescence intensity artifact check;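 brightness before thallium and not channel activity; 0 = typical well and far values either way flag optical interference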
An asterisk follows results filed as active. These rows are one share of the data; rates above refer to the full screens.

structure,KCNQ2 enhance,KCNQ2 enhance baseline
CC(C)CN1CCN(Cc2ccc(C(F)(F)F)cc2)CC1CCO (stereo not given),1.15,-0.23
COc1ccc(CNC(=O)C(NC(C)=O)C(C)C)cc1OC (stereo not given),1.94,-3
C[N+]1(C)CCN(c2ccccc2)CC1,0.78,-0.01
c1cc2c(cc1CCNC1CCCCCC1)OCO2,2.1,1.35
C=CCn1c(O)c(C(CC)=NCC2CCCO2)c(=O)[nH]c1=O (stereo not given),0.06,0.48
CC(=NCc1ccco1)c1c(O)n(-c2ccc(C)cc2)c(=O)[nH]c1=O,1.83,-1.21
O=S(=O)(NC1CCCCC1)OCC(Cl)(Cl)Cl,0.18,0.6
COc1ccc(N=C2SCCCN2C)cc1,0.85,-0.39
COc1cccc(CN2CCNCC2)c1,0.19,3.77
CCc1cc(=O)[nH]c(SCCCF)n1,0.52,3.29
Cc1ccc(OCC(=O)N2CCN(Cc3ccc([N+](=O)[O-])cc3)CC2)cc1,1,-0.61
N#CC(C#N)=Cc1ccc(N2CCCC2)cc1,0.94,0.4
CCN1C[C@@]2(COC)C3[C@@H](OC)[C@H]4[C@@H]1[C@@]3(C1C[C@@]3(O)[C@H](OC(=O)c5ccccc5)C1[C@]4(OC(C)=O)[C@@H](O)[C@H]3OC)[C@@H](OC)C[C@H]2O (stereo not given in full),0.68,1.75
C[N+]1(C)C2CCC1CC(OC(=O)c1ccco1)C2 (stereo not given),0.97,1.27
Cc1ccc(-n2nc(C)cc2NC(=O)COc2cc(C)cc3oc(=O)c4c(c23)CCC4)cc1,1.34,-1.38
Cn1c(O)c(C=NC2C(=O)C3(C)CCC2C3(C)C)c(=O)n(C)c1=O (stereo not given),0.51,2.06
CCCCn1c(O)c(C(CC)=Nc2cccc(C(=O)O)c2)c(=O)[nH]c1=O,1.03,-0.38
Cc1ccc(S(=O)(=O)N2CC2(C)CCl)cc1 (stereo not given),0.4,1.49
COc1ccccc1CC1C(=O)C2CCN1CC2 (stereo not given),0.59,-0.02
Cc1ccccc1NC1=NCCCS1,0.67,-0.36
O=C(O)C(Cl)(Cl)Cl,0.24,-0.19
Cn1c(O)c(C=NCCCC(=O)O)c(=O)n(C)c1=O,0.1,0
CCOC(=O)C1CCN(C=C2C(=O)N(C)C(=S)N(C)C2=O)CC1,1.59,-0.15
CCN(CC)CCCN=Cc1c(O)n(Cc2ccc(F)cc2)c(=O)[nH]c1=O,0.89,1.08
Cc1ccc2nc3c(cc2c1)CC1(C(=O)N(C)C(=O)N(C)C1=O)C1CCCCN31 (stereo not given),0.24,-0.18
CN1C(=O)N(C)C(=O)C2(Cc3cc(NC(=O)c4ccccc4)ccc3N3CCCC32)C1=O (stereo not given),0.07,0.4
O=C(c1ccccc1)N1CCC2(CC1)OCCO2,0.21,0.21
COC(=O)C1=C(c2cccc(OC)c2OC)C[C@@H]2CC[C@H]1N2C(=O)N1CCOCC1,0.22,1.36
Cc1nc2nc(C)c(CCC(=O)N3CCC4(CC3)OCCO4)c(C)n2n1,0.14,0.49
COc1ccccc1NC(=O)c1cn(CCC#N)nc1-c1ccc(F)cc1,1.19,-0.47
Cc1cccn2c(=O)c3cc(C(=O)N4CCC5(CC4)OCCO5)n(C)c3nc12,0.88,-0.24
CCC(=O)c1ccc(OC(=O)N(C)c2ccccc2)cc1,0.94,0.57
O=C1N(c2ccc(Cl)cc2)C(c2cccnc2)N2CCCN12 (stereo not given),0.02,-2.53
O=C(C(=O)N1CCOCC1)c1cn(Cc2ccccc2F)c2ccccc12,0.15,-0.56
COc1ccc(C2C(C(=O)N3CCC4(CC3)OCCO4)c3cc(OC)c(OC)cc3C(=O)N2C)cc1 (stereo not given),0.64,-0.03
O=C(NC(=S)N1C[C@H]2C[C@H](C1)c1cccc(=O)n1C2)c1ccc(Cl)cc1,0.6,-0.16
CCC1(CC)C(=N)N(C)C(=O)NC1=O,0.24,0.49
COc1ccc(OC)c(N2Cc3ccccc3C2=N)c1,1.26,-0.67
CN1C(=O)C(=Cc2ccccc2Oc2ccc(Cl)cc2)C(=O)N(C)C1=O,1.54,0.06
CC(=O)N1CCN(CCN=Cc2c(O)n(-c3ccc(F)cc3)c(=S)[nH]c2=O)CC1,0.71,0.05
CCOC(=O)c1ccc(N2C(=O)CC(N3CC=C(c4ccc(F)cc4)CC3)C2=O)cc1 (stereo not given),0.4,0.01
COc1ccc(-c2csc(NC(=O)COC(=O)Cc3ccccc3)n2)cc1OC,1.05,1.42
CN1CCN(c2ccc([N+](=O)[O-])c(Sc3ccccn3)c2)CC1,0.67,1.85
Cc1cc(=O)[nH]c(CCl)n1,0.05,-1.23
CCC(=NCc1ccco1)c1c(O)n(C)c(=O)n(C)c1=O,0.61,-1.99
Cc1[nH]c2ccccc2c1/C=N/O,1.59,-0.07
CC(=O)c1c(C)n(CC2CCCO2)c2ccc(O)cc12 (stereo not given),1.71,2.12
Cc1[nH]c2ccccc2c1C1=CCNCC1,1.75,1.6
NC1=C([N+](=O)[O-])C(c2ccc3c(c2)OCO3)c2c(c3ccccc3oc2=O)O1 (stereo not given),0.17,-0.16
C/C(=N\N1CCCCCC1)c1c(O)n(C)c(=O)n(C)c1=O,0.06,1.33

Continuation:
structure,KCNQ2 enhance,KCNQ2 enhance baseline
CC(=O)NC1C(OC(=O)Cc2ccccc2)OC(COC(C)=O)C(OC(C)=O)C1OC(C)=O (stereo not given),0.37,-1.25
CN1C2CCC1CC(OC(=O)CCN1CCCC1)C2 (stereo not given),0.78,2.15
CN1CCN(c2nc(Cl)ncc2F)CC1,0.57,1.4
CNS(=O)(=O)c1ccc(N=Cc2c(O)n(-c3ccc(C)cc3)c(=O)[nH]c2=O)cc1,0.05,-0.03
CNC(=O)Oc1ccc2ncccc2c1,0.14,0.01
C(CCc1nn[nH]n1)CCc1nn[nH]n1,0.46,-0.22
O=C1CCN(C(=O)Cc2ccccc2[N+](=O)[O-])CC1,0.18,0.08
CCC(C)N1C(=O)NC(=O)C2(Cc3c(ccc4ccccc34)N(C)C2)C1=O (stereo not given),0.29,0.92
Cc1nn(CC(C)C)c(Cl)c1C(=O)NC1CCC(C)CC1 (stereo not given),0.53,-0.77
COc1cc(CN2CCN(c3cc(C)ccc3C)CC2)ccc1O,1.64,-0.7
CCOP1(=S)Oc2cc3c(cc2C(C(=O)OC)(C(F)(F)F)O1)OCO3 (stereo not given),0.15,-1.37
CCCN1C2CCCC1CC(NC(C)=O)C2 (stereo not given),0.26,-1.2
Cn1nc(N)c2c1N=P(N1CCOCC1)(N1CCOCC1)N=C2c1ccccc1,1.36,-0.03
Cc1ccc2c(c1)=C/C(=C\c1c(O)[nH]c(=S)[nH]c1=O)C(=O)N=2,0.88,3.34
COc1cc(C(=S)N2CCOCC2)cc(OC)c1OC(=O)Cc1ccccc1,0.16,-2.15
CC(C)(C)N1Cc2ccccc2C1=N,0.6,-0.57
COc1ccccc1C1=NCc2nnc(C)n2-c2ccc(Cl)cc21,1.57,1.03
COc1ccc(C2=NCC(=S)Nc3ccc(Cl)cc32)cc1Cl,0.13,-0.92
O=C(CSc1ccccc1)N1CCC2(CC1)OCCO2,0.01,1.61
CCOC(=O)c1c(N)n(CCN2CCCCC2)c2nc3ccccc3nc12,1.5,-0.06
CCCC1=C(C(=O)OCC)C2(C(=O)Nc3ccc(C)cc32)C(C#N)=C(N)O1 (stereo not given),0.09,-0.44
CCN(CC)C(=O)c1ccc(N2C(=O)C3CC=C(Cl)CC3C2=O)cc1 (stereo not given),0.47,-1.12
O=c1[nH]c(=O)n(-c2ccccc2F)c(O)c1/C=C1\C=Nc2ccccc21,4.04,-0.16
CCn1c(O)c(/C(C)=N/N2CCCCC2c2cccnc2)c(=O)[nH]c1=S (stereo not given),0.02,-1.04
CN1C(=O)C(C2(C#N)CCCCC2)C(=O)N(C)C1=O,0.73,0.01
COC(=O)C1=C(c2cc3ccccc3s2)C[C@@H]2CC[C@H]1N2C(=O)N1CCOCC1,0.42,-0.02
COc1cc(/C=C2/C(=O)NC(=O)N(c3ccccc3)C2=O)ccc1O,0.42,-1.17
COC(=O)C1=C(c2cc3ccccc3o2)C[C@@H]2CC[C@H]1N2C(=O)N1CCOCC1,1.1,-0.57
CNC(C(=O)c1ccccc1)C(OC)c1ccccc1 (stereo not given),0.1,-0.01
O=C(c1cc(S(=O)(=O)N2CCCCC2)ccc1F)N1CCC2(CC1)OCCO2,0.9,-1.47
O=C(Cc1ccc(Cl)c(Cl)c1)NCC1(N2CCOCC2)CCCCC1,0.15,0.19
COc1cccc(CNCCc2ccccc2)c1OC,1.68,-0.24
COc1ccc(N2C(=O)/C(=C/c3ccc(C)o3)C(=O)NC2=S)cc1,1.94,0.82
Cc1ccc(S(=O)(=O)N(C)C)cc1NC(=O)C(C)[N+]12CCN(CC1)CC2 (stereo not given),1.61,0.02
CC(=O)N1CN2CN(C1)CN(C(C)=O)C2,0.7,1.26
CCOc1ccc(N2C(=O)/C(=C/c3ccc(C)o3)C(=O)NC2=S)cc1,0.94,-0.08
CN(C)[C@@H]1C(=O)C(C(N)=O)=C(O)[C@@]2(O)C(=O)C3=C(O)c4c(O)ccc(Cl)c4[C@@](C)(O)[C@H]3C[C@@H]12,0.02,0.02
CN(Cc1ccccc1)C(=C(Cl)Cl)/C(=C1/NCCN1Cc1ccc(Cl)nc1)[N+](=O)[O-],1.47,-0.07
O=P(N1CCCCC1)(N1CCCCC1)C(Cl)(Cl)Cl,1.61,0
CC1=C2C3OC(=O)C(C)C3CC[C@@]2(C)C=CC1=O (stereo not given in full),2.65,-0.29
Cc1cc(N2C(=O)C3CCCN3C2c2ccccc2)no1 (stereo not given),0.33,1.52
Cc1cc(OC(=O)N(C)C)nc2c1c(C)nn2C,1.49,-1.71
CCCCn1c(O)c(C(CC)=NCCCN(C)C)c(=O)[nH]c1=O,0.1,-0.92
CC(C(=O)c1c[nH]c2ccccc12)N1CCOCC1 (stereo not given),0.41,-1.27
CCCCC/C=C\C/C=C\C/C=C\C/C=C\CCCC(=O)Nc1ccc(O)cc1,1.95,1.01
CC(=O)O[C@]1(C)C(=O)OC/C2=C/CN(C)CCC(OC(=O)[C@@](O)(C(C)O)C[C@H]1C)C2=O (stereo not given in full),1.41,-1.19
O=c1[nH]c(=O)n(-c2ccc(F)cc2)c(O)c1C=Nc1ccccc1N1CCCC1,0.49,-0.57
CCN1CCN(C(=O)COc2ccc(S(=O)(=O)N3CCOCC3)cc2Cl)CC1,0.7,-0.01
CN1c2ccccc2Oc2ccccc21,0.44,-1.07
O=c1[nH]c(=O)n(-c2ccc(Br)cc2)c(O)c1C=NCCN1CCCCC1,0.68,-0.09

Some of the entries above in another layout:
> O=P(N1CCCCC1)(N1CCCCC1)C(Cl)(Cl)Cl
  KCNQ2 enhance: 1.61
  KCNQ2 enhance baseline: 0
> CC1=C2C3OC(=O)C(C)C3CC[C@@]2(C)C=CC1=O (stereo not given in full)
  KCNQ2 enhance: 2.65
  KCNQ2 enhance baseline: -0.29

Following part.
structure,KCNQ2 enhance,KCNQ2 enhance baseline
O=[N+]([O-])c1ccc(N2CCNCC2)cc1N1CCCCC1,0.17,-1.7
COc1cccc(-n2c(O)c(C=NCc3ccc4c(c3)OCO4)c(=O)[nH]c2=O)c1,0.04,-0.21
Cc1ccc2c(c1)CNc1ccccc1O2,0.98,-0.13
CCC(C)N1C(=O)/C(=C/c2ccc3c(c2)CCN3CCCCl)C(=O)NC1=S (stereo not given),0.01,1.02
COc1c(C)cc(C(=O)C2CCCN(Cc3cccc(O)c3)C2)cc1C (stereo not given),2.45,-1.26
N/C(=N\N=C/c1ccc(-c2ccc(O)c(C(=O)O)c2)o1)N[N+](=O)[O-],1.83,1.51
CC(N=Cc1c(O)n(C2CC2)c(=S)[nH]c1=O)c1ccccc1 (stereo not given),0.08,-2.15
O=C(CCc1ccccc1)N1C[C@H]2C[C@@H](C1)c1cccc(=O)n1C2,0.05,-0.7
C=CCn1c(O)c(C(CC)=Nc2cccc(C(F)(F)F)c2)c(=O)[nH]c1=O,0.67,0.58
CCOc1ccccc1-n1c(O)c(C=Nc2ccc(N(CC)CC)cc2)c(=O)[nH]c1=O,1.11,0.83
CC(=O)Nc1ccc(C2CN(C)CC2C(=O)c2ccc(Cl)cc2)cc1 (stereo not given),0.05,1.87
COc1ccc(CC(=O)N(C)C2CCCN(Cc3ccccc3F)C2)cc1OC (stereo not given),0.91,-2.41
CCCOc1ccc(C(=O)NC(=S)N2C[C@H]3C[C@H](C2)c2cccc(=O)n2C3)cc1,1.33,-0.42
CN(C)CCNC(=O)c1cccn(Cc2cccc(C(F)(F)F)c2)c1=O,0.01,2.44
O=P(Nc1ccccc1)(Oc1ccccc1)Oc1ccccc1,0.72,1.22
O=c1cccc2n1CC1CC2CN(S(=O)(=O)c2cc(Cl)ccc2Cl)C1 (stereo not given),0.39,-0.02
CN(C)c1ccc(N=Cc2c(O)n(CCC3=CCCCC3)c(=O)[nH]c2=O)cc1,0.28,-1.64
O=S(=O)(c1ccc(F)cc1)N1CN2CCN(C2)C1,0.39,0.4
COc1ccc(CC(C)Nc2cccc(F)c2)cc1 (stereo not given),0.62,0.52
Nc1cnn(-c2ccccc2)c(=O)c1Cl,0.74,-0.03
COc1ccc(OCC(=O)N2CCN(C/C=C/c3ccccc3)CC2)cc1,1.28,-0.12
